# From PubChem
# GIV Gai3 FP: GIV-Galpha-i interaction inhibition; AID 1224905; Galpha-i3/FITC-GIV peptide fluorescence polarization, 90 min; active compounds read low; scaled: aluminum fluoride 0%, vehicle 100%; 210,000 compounds, 0.42% hits; percent of control (FP), % (no concentration beside the values); P08753;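 active = replicate mean at 85% of control or lower, very high polarization wells dropped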;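 note: wells of about 15 µL received 100 nL stock; the first replicate is given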
# Target sequence (P08753 whole entry, looked up): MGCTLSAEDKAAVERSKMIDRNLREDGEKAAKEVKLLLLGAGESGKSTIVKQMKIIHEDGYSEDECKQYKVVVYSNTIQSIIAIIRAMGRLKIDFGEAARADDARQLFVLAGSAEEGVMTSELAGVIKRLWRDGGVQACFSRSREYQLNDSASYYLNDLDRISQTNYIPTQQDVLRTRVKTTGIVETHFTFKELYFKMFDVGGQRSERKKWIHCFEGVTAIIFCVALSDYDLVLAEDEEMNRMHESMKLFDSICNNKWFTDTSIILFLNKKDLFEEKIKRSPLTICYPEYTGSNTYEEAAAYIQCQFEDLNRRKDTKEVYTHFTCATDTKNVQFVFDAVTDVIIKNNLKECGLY
# * = called active by the depositor. These rows are one share of the data (hit frequency here may not be typical).
SMILES,GIV Gai3 FP
O=C1/C(=C/c2ccc(-c3ccc(Br)cc3)o2)C=C(c2ccccc2)N1c1ccc(Nc2ccccc2)cc1,110.8
COc1ccc(-c2cc3n(n2)CCCN(C(=O)NCC2CCCO2)C3)cc1OC (configuration not stated),98.7
COc1cccc(C2=N/C(=C\c3ccccc3OC)C(=O)N2c2ccc(Br)cc2)c1,120.7
COC(=O)Nc1ccc(S(=O)(=O)N2CCC(C(=O)N3CCC(C)CC3)CC2)cc1,125.9
CCCCC(C(=O)Nc1cccc(Cl)c1)N1C(=O)C2C3c4ccccc4C(c4ccccc43)C2C1=O (configuration not stated),119.6
COc1ccc(C(=O)N2CCc3c([nH]c4ccccc34)C2c2ccc([N+](=O)[O-])cc2)cc1 (configuration not stated),114.7
Cc1ccc2c(c1)C1(OCCCO1)C(=O)N2CC(=O)O,101.5
O=C(CSc1nc(=O)n(Cc2ccncc2)c2c1CCC2)N1CCCC1,105.9
Cc1ccc(S(=O)(=O)N2c3cccc4cccc(c34)S2(=O)=O)c([N+](=O)[O-])c1,110.8
Cc1cc2c(cc1C)-c1c(ssc1=Nc1ccc(F)cc1)C(C)(C)N2,102.0
Cn1c(=O)c2c(ncn2Cc2cccc(F)c2)n(C)c1=O,108.5
O=C(c1cccc(Cl)c1)N1N=C(C2CCCCC2)CC1(O)C(F)(F)F (configuration not stated),122.2
O=C(CSc1nnc(NC(=O)c2c(F)cccc2F)s1)Nc1nnc(-c2cccc([N+](=O)[O-])c2)s1,108.0
CCOC(=O)c1nnn(-c2nonc2N)c1CN1CCN(Cc2ccccc2)CC1,107.6
COc1cccc(OCc2cc(C3Nc4ccccc4C(=O)N3Cc3ccco3)ccc2OC)c1 (configuration not stated),98.9
CCOC(=O)c1c2n(c3cc(Br)c(OC)cc13)CCN(c1ccccc1)C2,117.4
O=C1c2ccccc2NC(c2ccc(F)c(Oc3ccccc3)c2)N1c1ccc(F)cc1 (configuration not stated),107.9
CCc1nc2sc(C(C)C)nn2c1S(=O)(=O)NCc1cccs1,100.8
CCOc1ccc(NC(=O)c2cc(S(=O)(=O)N3CCN(c4cccc(C)c4C)CC3)ccc2F)cc1,118.0
CC(C)c1ccc(-n2cnc3cc(C(=O)NCc4ccc5c(c4)OCO5)ccc32)cc1,103.5
O=C1c2ccc([N+](=O)[O-])cc2C(=O)N1C1C(=O)N(c2cccc(C(F)(F)F)c2)C1c1cccs1 (configuration not stated),103.1
Cc1nc(-c2cc(S(=O)(=O)NCc3cc(F)cc(F)c3)c(C)s2)cs1,112.1
O=C(c1ccoc1)N1CCc2[nH]ncc2C1,98.6
CCc1cc(C2CCCN2C(=O)c2nn(C)cc2Cl)on1 (configuration not stated),99.1
CCOc1cc(C(=O)Nc2c3c(nn2-c2ccc(C)cc2)CS(=O)(=O)C3)cc(OCC)c1OCC,103.2
O=C(/C=C/c1cccc(Cl)c1)Oc1cccc(NC2=NS(=O)(=O)c3ccccc32)c1,108.9
Cc1ccccc1-c1ncccc1C(=O)N1CCC(C(=O)N2CCN(c3ccccn3)CC2)CC1,100.9
COc1cc(OC)c(NC(=O)c2sc3ncn(CC(=O)N4CCN(c5ccccn5)CC4)c(=O)c3c2C)cc1Cl,100.1
CC(C)c1cc(C2CCCN2C(=O)Cn2cc(Cl)cn2)on1 (configuration not stated),100.4
O=C(Cn1nc2c3sc(N4CCCCC4)nc3ncn2c1=O)Nc1cc(F)cc(F)c1,102.3
Cc1cc(C)cc(NC(=O)CCc2nc(CSc3n[nH]c(-c4ccccc4)n3)no2)c1,112.1
COC(=O)C1=CN(C2CC2)c2cc(N3CCc4ccccc4C3)c(F)cc2S1(=O)=O,96.8
CC1CCCN(CC2CCN(S(=O)(=O)Cc3cc(F)cc(F)c3)CC2)C1 (configuration not stated),104.4
COc1cccc(N/C(SCc2ccccc2Cl)=C(/C#N)C(=O)NCCc2ccc(OC)c(OC)c2)c1,101.7
CC1CCN(S(=O)(=O)c2nn(C)cc2C(=O)O)CC1,105.6
CCCCN(c1nc(C)cc(OC)n1)S(=O)(=O)c1ccc(C)cc1,97.5
O=S(=O)(c1cc(-c2cc(C(F)(F)F)on2)cs1)N(Cc1ccco1)C1CCCCC1,98.4
CCOC(=O)c1c(NC(=O)Cn2nc([N+](=O)[O-])c(Cl)c2C)sc2c1CCC(C)C2 (configuration not stated),106.6
CC1=C(C(=O)OCc2ccccc2)C(c2cccs2)C(C#N)=C(N)O1 (configuration not stated),102.9
COc1cccc2cc(C(=O)Nc3cccc(C)c3)c(=Nc3ccc(C(=O)O)cc3)oc12,112.0
CN(C)c1ccc(NC(=O)c2cccc(N3C(=O)C4C5C=CC(C5)C4C3=O)c2)cc1 (configuration not stated),105.9
CCOCCCn1c(=S)[nH]c2cc(C(=O)NCCCN3CCN(c4cccc(Cl)c4)CC3)ccc2c1=O,114.1
Clc1cccc(-c2noc(Cc3nc(-c4cccs4)cs3)n2)c1,115.2
O=c1nc2n(-c3cccc(F)c3)c3ccccc3cc-2c(=O)[nH]1,105.6
CN(C)c1ccc(C2CC(c3cccs3)Nc3ncnn32)cc1 (configuration not stated),109.1
CCc1cccc(C)c1Nc1c(-c2ccc(O)cc2)nc2cnc(Br)cn12,140.3
CC12COC3(C(=O)Nc4ccc(F)cc4)CC1CCC32C (configuration not stated),106.3
CCC1CCCCN1CCNS(=O)(=O)c1cc(-c2nc(C)c(C)s2)cs1 (configuration not stated),105.5
CC1CCCN(c2ncc(S(=O)(=O)c3ccc(C(C)C)cc3)c(N)n2)C1 (configuration not stated),106.9
CC12c3ccccc3C(c3ccccc31)C1C(=O)N(c3ccc(C(=O)O)cc3)C(=O)C12 (configuration not stated),110.9
CCOC(=O)CSc1nc2ccc(Nc3nc(N4CCOCC4)nc(N4CCOCC4)n3)cc2s1,111.0
CC(C)c1ccc(C2CC(=O)NC(SCC(=O)Nc3ccc(Cl)cc3)=C2C#N)cc1 (configuration not stated),108.0
C=CCOC(=O)C1=C(C)NC(C)=C(C(=O)OCC=C)C1c1cn(-c2ccccc2)nc1-c1cccc([N+](=O)[O-])c1,108.1
O=C(NCc1ccc2c(c1)OCO2)c1cccc(Nc2ncc(-c3ccc(F)cc3)cn2)c1,105.0
Cc1cccc(NC(=O)c2ccc(F)c(S(=O)(=O)N3CCCc4ccccc43)c2)c1,103.0
COc1ccc(-c2c(C#N)c(N)nc3sc(C(=O)Nc4ccc(F)cc4)c(N)c23)cc1OC,107.6
COc1cc(C2CC(=O)Nc3c2ccc2ccccc32)cc(OC)c1O (configuration not stated),109.9
CCN1C(=O)NC2NC(=O)NC21 (configuration not stated),107.6
CCOc1cc(-c2nc3sc4c(c3c(=O)[nH]2)CCCC4)cc(Cl)c1OCCOc1ccccc1OC,104.3
O=C1/C(=C/c2ccc([N+](=O)[O-])cc2)C=C(c2ccccc2)N1c1ccccc1Cl,117.7
# Going on with the list.
SMILES,GIV Gai3 FP
COc1ccc2c(c1)OC1(C=C2)N(C)c2ccccc2C1(C)C (configuration not stated),122.2
Cc1cc(C)n(-c2nc3c(c(=O)n2CC(=O)Nc2ccc4c(c2)OCO4)CCC3)n1,100.7
O=C(NC1CCCCCC1)C1CCN(c2cncnc2N2CCOCC2)CC1,101.0
Clc1ccc(Nc2nc(NC3CCCC3)nc(N3CCOCC3)n2)cc1,103.5
CCOc1cc(C2C(C#N)=C(N)OC3=C2C(=O)CC(C)(C)C3)cc([N+](=O)[O-])c1OC(=O)c1cccs1 (configuration not stated),103.7
FC(F)Oc1ccc(C2CC(c3cccs3)=Nc3ccccc3S2)cc1 (configuration not stated),114.2
O=C1c2ccccc2C(=O)N1CC1c2ccccc2CCN1S(=O)(=O)Cc1ccccc1 (configuration not stated),113.6
O=C(NCCSCc1ccccc1)c1ccc[nH]c1=S,110.7
CC1(C)c2ccccc2N2CC(=O)NC21/C=C/c1cccc(Br)c1 (configuration not stated),104.0
O=C(NCCC1=CCCCC1)c1cc(S(=O)(=O)N2CCOCC2)ccc1Sc1ccc(F)cc1,102.7
CCOc1ccccc1C1C(C#N)=C(SCC(=O)Nc2cccc(C)c2)NC2=C1C(=O)CCC2 (configuration not stated),102.5
COc1ccc(N2S(=O)(=O)c3ccccc3S2(=O)=O)cc1OC,110.1
COC(=O)c1c(C)oc2ccc(N(C(=O)c3ccc(C)cc3)S(=O)(=O)c3cccc([N+](=O)[O-])c3)cc12,109.8
O=C(NC1CCCCC1)N1CCN(C(=O)c2nsc3ccccc23)CC1,100.0
COCCCN1CCc2nc(SCc3cccc(Br)c3)[nH]c(=O)c2C1,98.7
O=C(NCCC1=CCCCC1)C1CCCN(c2ncc(-c3ccc(F)cc3)cn2)C1 (configuration not stated),109.1
COC(=O)C1=C(C(=O)OC)SC2(S1)C(C(=O)OC)=C(C(=O)OC)SC1=C2c2cc(C)cc(C)c2N(C(C)=O)C1(C)C,108.7
CCCCN(CCCC)CCC(=O)NN1S(=O)(=O)c2ccccc2S1(=O)=O,106.3
Cc1nc(-c2cc(S(=O)(=O)N3CCC(C)CC3)c(C)s2)sc1C,98.5
COc1ccc(C(c2c(C)n(C)n(-c3ccccc3)c2=O)c2c(C)n(C)n(-c3ccccc3)c2=O)c(OC)c1OC,103.4
CC(C)c1cc(C2CCCN2Cc2cc(Br)ccc2O)no1 (configuration not stated),103.4
Cc1onc(-c2ccccc2)c1C(=O)Nc1sc2c(c1C#N)CCCC2,102.8
O=C1N(CN2CCN(c3ccccc3)CC2)c2ccccc2C12OCCCO2,108.1
O=C(CSc1ccnc(=O)[nH]1)Nc1ccccc1,106.6
O=[N+]([O-])/C(C(Cl)=C(Cl)Cl)=C(\Nc1ccccc1)SCc1ccccc1,106.1
CN1CCN(C(=O)c2cc3c(=O)n(C)ccc3n2C)CC1,101.2
Cc1ccc(-c2nc3c4ccccc4n(CC(=O)c4cc(C)ccc4C)c(=O)n3n2)cc1,98.3
COc1ccc(C(=O)COC(=O)c2ccc3c(c2)OCCO3)cc1,106.2
O=C(NCC(=O)N1CCN(c2ccccc2)CC1)c1ccccc1Cl,110.2
O=C(CSc1ccccc1)Nc1cccc(-c2ccc3ccccc3n2)c1,99.7
CCc1ccc(-n2c(N)c(C(=O)Nc3ccccc3OC)sc2=S)cc1,109.3
CC1(C)C(=O)N(Cc2ccccc2)c2ccccc2N1C(=O)c1ccc(Cl)cc1,105.8
O=C(c1ccc(N2C(=O)C3C4C=CC(C4)C3C2=O)cc1)N1CCN(C(=O)c2ccc(N3C(=O)C4C5C=CC(C5)C4C3=O)cc2)CC1 (configuration not stated),103.6
COc1ccc(Cn2c(=O)cnn(C3OC(COC(C)=O)C(OC(C)=O)C(OC(C)=O)C3OC(C)=O)c2=O)cc1Br (configuration not stated),109.4
Cc1c(Cl)c([N+](=O)[O-])nn1CC(=O)Nc1sc2c(c1C#N)CCC(C(C)(C)C)C2 (configuration not stated),108.9
COc1ccccc1-c1cc2n(C)c(C)c(CCC(=O)NC3CCCCC3)c(=O)n2n1,102.4

# 3 compounds out of the list above, arranged by the value under GIV Gai3 FP, low to high:
SMILES,GIV Gai3 FP
CN1CCN(C(=O)c2cc3c(=O)n(C)ccc3n2C)CC1,101.2
O=[N+]([O-])/C(C(Cl)=C(Cl)Cl)=C(\Nc1ccccc1)SCc1ccccc1,106.1
COc1ccc(Cn2c(=O)cnn(C3OC(COC(C)=O)C(OC(C)=O)C(OC(C)=O)C3OC(C)=O)c2=O)cc1Br (configuration not stated),109.4

# (continued)
SMILES,GIV Gai3 FP
C=CCn1c(SCC(=O)Nc2ccc(OCC)cc2)nc2cc(C(=O)N3CCC(C(N)=O)CC3)ccc2c1=O,109.0
COC(=O)c1ccc2c(=O)n(Cc3ccc(C(=O)Nc4cc(OC)c(OC)c(OC)c4)cc3)c(=S)[nH]c2c1,102.4
CCNC(=O)N1CCC(OCC)CC1,98.1
CCOC(=O)C1=C(N)n2c(s/c(=C\c3ccncc3)c2=O)=C(C(=O)OCC)C1c1ccncc1 (configuration not stated),109.9
CC1CCCN(S(=O)(=O)c2ccc(-c3nnc(C4CCC4)o3)o2)C1 (configuration not stated),107.6
CCC1=NOC(C(=O)N2CCN(CC)CC2)C1 (configuration not stated),101.1
O=C(c1ccoc1)N1CCCCC1CCN1CCOCC1 (configuration not stated),106.9
CCOc1ccc(NC(=O)C2CC(=O)N(CC)C(=Nc3cccc(Cl)c3)S2)cc1 (configuration not stated),109.7
O=C(C1CCN(c2cnc(N3CCCC3)nc2)CC1)N1CCOCC1,102.4
COc1cc(/C=C2\SC(=S)N(NC(=O)c3ccncc3)C2=O)ccc1OCc1ccccc1Cl,108.3
O=C(c1ccc(-n2c(=S)[nH]c3ccccc3c2=O)cc1)N1CCC(O)(c2cccc(C(F)(F)F)c2)CC1,109.8
CCC1C(=O)N=C(SCC(=O)Nc2ccccc2)NC1=O (configuration not stated),113.2
Cc1c(CC(Cl)(Cl)Cl)c2c(n1Cc1ccccc1)CC(C)(C)CC2=O,106.6
Cc1cc(N2CCC(C)CC2)n2nc(CN3CCCC(C)C3)nc2n1 (configuration not stated),107.1
CCN1CCc2c(sc3nc(SCC(=O)C(C)(C)C)n(Cc4ccc(C(=O)O)cc4)c(=O)c23)C1,112.1
Cc1ccc(C)c(S(=O)(=O)Nc2ccc3nncn3n2)c1,106.0
Nc1nc(CSc2nc(-c3ccccc3)c(-c3ccccc3)o2)nc(N2CCOCC2)n1,112.1
Cn1nc(-c2nc(-c3ccccc3)no2)c2c1CCN(S(=O)(=O)c1ccc(Cl)cc1)C2,101.1
COc1ccc2nc(SCC(=O)Nc3ccc(-c4nc5ccccc5o4)cc3)[nH]c2c1,108.0
O=C1C2ON(c3ccccc3)C(c3ccc(F)cc3)C2C(=O)N1Cc1ccccc1 (configuration not stated),100.6

# Molecules listed so far containing a CF3 group, in the order listed:
SMILES,GIV Gai3 FP
O=C(c1cccc(Cl)c1)N1N=C(C2CCCCC2)CC1(O)C(F)(F)F (configuration not stated),122.2
O=C1c2ccc([N+](=O)[O-])cc2C(=O)N1C1C(=O)N(c2cccc(C(F)(F)F)c2)C1c1cccs1 (configuration not stated),103.1
O=S(=O)(c1cc(-c2cc(C(F)(F)F)on2)cs1)N(Cc1ccco1)C1CCCCC1,98.4
O=C(c1ccc(-n2c(=S)[nH]c3ccccc3c2=O)cc1)N1CCC(O)(c2cccc(C(F)(F)F)c2)CC1,109.8
